# HSV augment: HSV replication enhancement; 220,000 tested, 0.005% active; HSV replication augmentation in cells, fold increase; maximum fold increase;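 active = peak rise of 1.5-fold or more in the series; inconclusive = self-fluorescent or not available for retest; tested in PC3 cells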;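 note: first round at 10 µM; read as green reporter fluorescence; hits show the peak of a series up to 25 µM; 1 = signal of infected wells without compound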
# GALR2 ag: activates the human galanin receptor 2. activation, %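 (tested at 5 µM)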. GALR2-expressing cells, agonist activation read-out. 140,000 tested, 0.48% active. O43603;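 active = above mean plus 3 SD of all compounds, about 5% in these data, not always enough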;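 note: 0% = vehicle buffer wells and 100% = reference agonist at full effect; tested in CHO reporter cells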
# Target sequence (O43603 whole entry, looked up): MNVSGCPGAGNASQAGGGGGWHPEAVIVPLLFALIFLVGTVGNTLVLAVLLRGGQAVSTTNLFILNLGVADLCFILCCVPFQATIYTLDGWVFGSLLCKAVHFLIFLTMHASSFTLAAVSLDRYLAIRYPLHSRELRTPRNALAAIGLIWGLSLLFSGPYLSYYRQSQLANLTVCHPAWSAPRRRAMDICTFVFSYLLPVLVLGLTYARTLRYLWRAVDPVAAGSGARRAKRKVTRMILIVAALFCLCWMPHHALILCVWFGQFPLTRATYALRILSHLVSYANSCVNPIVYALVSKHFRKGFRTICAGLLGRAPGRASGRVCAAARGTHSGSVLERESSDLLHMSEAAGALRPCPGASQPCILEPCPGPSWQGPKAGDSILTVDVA
# PKD1 inh: inhibitors of human PKD1 kinase | inhibition, %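 (about 10 µM by stock and volumes)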 | AID 797 | PKD1 kinase fluorescence polarization assay | Q15139 | 200,000 tested, 0.056% active;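 active = inhibition of 50% or more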;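 note: controls were vehicle for no effect and a reference inhibitor for full effect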
# RGS16-Gao: modulates binding between human RGS16 and Galphao; bead-based flow cytometry RGS16-Galphao binding, fluorescence; actives lie on both sides; binding response (% of control), % at 10 µM; 220,000 tested, 0.38% active; AID 1441;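 active = below 25% or above 175%, edge rows of some plates excepted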;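 note: Galphao activated by GDP with aluminum fluoride before binding; 100% = wells without compound and 0% = beads without RGS; some results beyond the cut were filed as inactive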
# Target sequence (O15492 whole entry, looked up): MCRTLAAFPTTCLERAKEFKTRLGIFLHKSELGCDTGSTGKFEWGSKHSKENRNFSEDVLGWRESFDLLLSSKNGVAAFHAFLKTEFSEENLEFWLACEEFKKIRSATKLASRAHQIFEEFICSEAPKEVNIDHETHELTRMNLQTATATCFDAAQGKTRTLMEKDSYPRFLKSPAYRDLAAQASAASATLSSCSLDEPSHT
# Target sequence (P09471 whole entry, looked up): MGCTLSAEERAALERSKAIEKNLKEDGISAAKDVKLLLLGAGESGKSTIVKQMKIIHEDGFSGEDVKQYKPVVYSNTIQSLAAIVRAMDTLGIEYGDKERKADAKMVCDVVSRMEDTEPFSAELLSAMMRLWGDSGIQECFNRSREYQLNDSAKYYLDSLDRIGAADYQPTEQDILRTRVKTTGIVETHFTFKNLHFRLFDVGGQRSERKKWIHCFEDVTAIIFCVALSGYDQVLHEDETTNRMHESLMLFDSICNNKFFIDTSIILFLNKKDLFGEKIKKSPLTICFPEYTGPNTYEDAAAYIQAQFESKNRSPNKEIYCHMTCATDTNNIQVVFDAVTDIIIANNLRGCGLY
# INS promoter inh: TRM-6 insulin promoter activity inhibition | TRM-6 cells (human fetal islet line), insulin promoter-eGFP reporter, imaging; reporter expression induced with tamoxifen | inhibition, % at 2 µM | 130,000 tested, 0.9% active | AID 1273;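 active = inhibition above the mean plus 3 SD, with well images judged a real hit on visual review, cut at about 60% in these data, passing the limit was not always enough; inconclusive = inhibition over the cutoff but images rejected on review; inactive = inhibition not above the cutoff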
# INS promoter inh cell count: further read-out of INS promoter inh, marked with its call; normalized cell count, %; measured here: cell count, toxicity; reference of the scale not given here;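 cells exposed to compound for 48 h; stained nuclei by imaging scaled within each plate; lower means fewer cells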
# HSV augment primary fold: recorded beside HSV augment, whose call it bears; fold increase; compound at 10 µM; measured here: primary screen fold increase 10 uM; tested in PC3 cells;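 GFP signal in the first replicate; 1 = infected wells without compound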
# An asterisk follows results filed as active; i = inactive; ? = inconclusive; nt = no result given; & = joins results of further samples.
SMILES,HSV augment,HSV augment primary fold,GALR2 ag,PKD1 inh,RGS16-Gao,INS promoter inh,INS promoter inh cell count
CCCCCCCCCCS(=O)(=O)N/N=C/c1ccc(O)cc1,i,1,-1.3,5,99,38,93
Cn1cc(/C=C2\SC(=S)N(NC(=O)c3ccccc3)C2=O)c2ccccc21,nt,nt,-0.3,-8,106,-12,134
CC(C)(C)C(=O)Cn1nnc(-c2ccc(C(F)(F)F)cc2)n1,i,0.98,nt,nt,105,nt,nt
Cc1onc(-c2ccccc2)c1-c1nnc(-c2ccccc2C(F)(F)F)o1,i,1.1,nt,nt,103,nt,nt
Cc1ccc(-c2nn(-c3ccccc3)cc2/C=C/C(=O)OCC(=O)NC2CC2)o1,i,1,nt,3,92,nt,nt
Cc1ccc(C2=NNC(c3ccc(Cl)cc3)=Nc3ccccc32)o1,i,1,-1.3,-14,102,nt,nt
COC(=O)C1=C(C)N(Cc2ccc3c(c2)OCO3)C(=O)C1,i,0.94,nt,-1,98,-31,55
Cc1cc2cc(CCNC(=O)c3c(-c4ccccc4Cl)noc3C)c(=O)[nH]c2cc1C,i,0.82,0.1,4,100,-30,116
O=C(c1cnn(-c2ccc(Cl)cc2)c1)c1ccccc1O,i,0.99,nt,-9,109,-36,97
O=C(Cn1cnc([N+](=O)[O-])n1)NCc1ccccc1,nt,nt,-1.1,-15,99,nt,nt
CC(=O)N/C(=C\c1ccccc1)C(=O)NCC(=O)O,i,0.97,-0.1,16,107,nt,nt
CC(C)C(C(=O)O)N1CCS(=O)(=O)CC1 (stereo not drawn),i,0.92,nt,1,100,38,101
Cc1ccc(NC(=O)NC(=O)CSc2n[nH]c(N)n2)c(C)c1,i,0.95,nt,-6,99,nt,nt
CC(C)Sc1nnc(Nc2ccccc2)s1,i,0.83,-2.8,-3,101,nt,nt
Cc1ccc(CN/C=C/C(=O)c2ccc(Br)cc2)cc1,i,1,-1.7,1,104,-66,41
COCCCNc1nc2nonc2nc1N1C[C@H]2CC[C@H]1C2,i,1.2,nt,0,90,nt,nt
COc1cc(/C=N\NC(=O)c2ccc(Cl)cc2)ccc1Oc1ccc([N+](=O)[O-])cn1,i,0.96,nt,nt,117,nt,nt
CCn1c(/C=C/Nc2ccccc2)[n+](CC)c2ccc(C(=O)OCC(F)(F)F)cc21,i,1,1.0,0,78,33,112
Cc1ccccc1C(=O)NNC(=O)C(=O)Nc1cccc(Cl)c1C,i,0.95,-1.6,5,100,23,107
CN(CCOc1ccc(Cl)cc1)C(=O)c1ccc(S(=O)(=O)N2CCOCC2)cc1,i,1.1,nt,-2,101,-5,133
COc1ccc(NC(=O)CNc2ccc(C#N)cc2)cc1,i,0.98,nt,-2,105,nt,nt
CCOC(=O)C1(C)NC(c2ccccc2F)C2C(=O)N(c3cccc(C(C)=O)c3)C(=O)C21 (stereo not drawn),i,0.93,-1.5,-7,99,nt,nt
NC(=S)NNc1ccc(Cl)c(Cl)c1,i,0.95,nt,nt,100,nt,nt
CCN(CCNC(=O)C1CCN(c2nnc(-n3cccc3)s2)CC1)c1ccccc1,i,0.97,-1.3,-4,108,-10,130
Nc1nnnn1/N=C/c1cc([N+](=O)[O-])ccc1O,i,0.97,nt,nt,99,nt,nt
CC(=O)Nc1ccc2cc3ccc(NC(C)=O)cc3nc2c1,?,nt,nt,nt,78,nt,nt
COc1cccc(-n2c(Cc3cc(=O)[nH]c(=O)[nH]3)nnc2SCC(=O)N2CCCCCC2)c1,i,1.1,-1.0,-2,101,nt,nt
CCC(=O)Nc1ccc2c(c1)ncn2-c1ccc(C)cc1,i,0.96,nt,1,100,8,142
CC(=O)c1cn(CC(=O)NCc2ccc3c(c2)OCO3)c2ccccc12,i,0.98,-1.9,-5,109,-3,102
c1ccc(Cc2ccc(OCCn3cncn3)cc2)cc1,i,1.1,-3.0,-1,96,-39,108
Cc1ccc(C)c(OCC(=O)Nc2ccc(S(=O)(=O)N3CCN(C)CC3)cc2)c1,i,0.96,-1.1,0,103,28,87
COc1cc2c(cc1OC)-c1n[nH]c(=S)n1C(C)(C)C2,i,0.94,nt,0,94,40,115
Cc1ccc(-c2csc3ncnc(-n4nnc5ccccc54)c23)cc1,i,1,-0.6,-4,102,nt,nt
CCOc1ccccc1C(=O)N1CCN(c2cccc(Cl)c2)CC1,i,0.58,0.2,-2,103,-97,4
COc1cc(C(=O)NC(=S)NC(C)C)cc(OC)c1OC,i,0.87,-0.8,-12,109,-14,90
CCOC(=O)c1c(C)[nH]c(C(=O)Nc2ccc(NC(C)=O)cc2)c1C,i,0.9,nt,-3,47,45,151
C#CCOCCOCCOCCNc1nc(N2CCN(C(=O)Cn3cc(CCCCN)nn3)CC2)nc(N2CCN(C(=O)[C@H](C)n3cc(CCCN=C(N)N)nn3)CC2)n1,i,1.2,-1.4,5,97,-32,87
Cn1nnnc1-c1cc(Cl)cc(Cl)c1,i,0.92,nt,0,102,-6,113
CC1CCCC(NC(=O)COC(=O)c2ccc(S(=O)(=O)N3CCOCC3)cc2)C1C (stereo not drawn),i,0.94,-0.7,-11,86,nt,nt
CCC(C)(C)NC(=O)/C=C/c1ccc(OC)c(S(=O)(=O)N2CCOCC2)c1,i,0.85,-0.5,-11,103,-8,60
CCC(C(=O)N1CCOCC1)n1c(C(=O)OC)cc2occc21 (stereo not drawn),i,0.96,-0.3,-7,103,nt,nt
CCOc1ccc(C(C)=O)cc1CN1C(=O)NC2(CCCCC2C)C1=O (stereo not drawn),i,0.93,-3.0,4,191,nt,nt
CCOCCOC(=O)c1ccc(NC(=O)c2cc(OC)c(OC)c(OC)c2Br)cc1,i,0.98,-0.8,-1,100,50,169
O=C(Cc1csc(Nc2nc(=S)[nH]c3ccccc23)n1)NCc1ccccc1Cl,i,0.96,-0.6,-11,103,11,126
Cc1ccn2cc(CNS(=O)(=O)c3ccc(Cl)s3)nc2c1,i,0.94,-2.2,-13,105,nt,nt
CCC(C)(c1ccc(C(=O)OC)s1)c1ccc(C(=O)OC)s1,i,0.88,-2.6,-2,104,nt,nt
COC(=O)Nc1ccc(S(=O)(=O)N(C)CC(F)(F)C(F)F)cc1,i,0.95,-2.0,-9,105,5,146
CC(=O)Nc1ccc(S(=O)(=O)N2CCN(Cc3cccnc3)CC2)cc1,i,0.91,0.1,2,101,-9,116
CCCNC(=O)Cn1c(=O)/c(=C\c2ccc(-c3cccc([N+](=O)[O-])c3)o2)s/c1=C\C(=O)C(C)(C)C,i,1.2,0.7,-5,64,-81,104
Cc1ccc(NS(=O)(=O)c2cccc(C(=O)NCC3(N(C)C)CCCCC3)c2)cc1,i,0.9,nt,-1,102,-50,112
CCc1nnc(NC(=O)C2(C)COC(c3ccccc3)OC2)s1 (stereo not drawn),i,0.88,nt,-5,103,nt,nt
O=C(CCC(=O)Nc1ccc(F)cc1)N/N=C/c1ccncc1,i,0.88,nt,4,104,50,127
CCOC(=O)c1cnc(Nc2nc3ccccc3o2)nc1CSC(=S)N(CC)CC,i,0.95,0.5,-6,102,nt,nt
Cc1[nH][nH]c(=O)c1C(c1c(C)[nH][nH]c1=O)c1cn(C)c2ccccc12,i,0.97,nt,5,101,nt,nt
C(=N\Nc1nn[nH]n1)/c1ccccc1,i,0.85,-1.3,-4,120,42,39
CCOc1ccc(/C=N/Nc2cc(C)nc(N3CCOCC3)n2)cc1,i,1.1,nt,nt,96,nt,nt
COc1ccc(/C(O)=C2/C(=O)C(=O)N(c3ncccn3)C2c2ccc(F)cc2)cc1 (stereo not drawn),i,0.94,nt,nt,97,nt,nt
NC1=NC[C@@H](Cc2ccc(O)cc2)N1CC1CCCCC1,i,1,nt,nt,84,nt,nt
O=C(NC1CCCCC1)OCCN1CCN(Cc2ccccc2)CCC1=O,nt,nt,0.4,5,101,-10,124
Cc1nc2cc(NC(=O)C3COc4ccccc4O3)ccc2s1 (stereo not drawn),i,1.1,nt,2,59,nt,nt

# An excerpt of these results, with two lines to a compound.
# Order of results – HSV augment | HSV augment primary fold | GALR2 ag | PKD1 inh | RGS16-Gao | INS promoter inh | INS promoter inh cell count
C(=N\Nc1nn[nH]n1)/c1ccccc1
→ i | 0.85 | -1.3 | -4 | 120 | 42 | 39
CCOc1ccc(/C=N/Nc2cc(C)nc(N3CCOCC3)n2)cc1
→ i | 1.1 | nt | nt | 96 | nt | nt
COc1ccc(/C(O)=C2/C(=O)C(=O)N(c3ncccn3)C2c2ccc(F)cc2)cc1 (stereo not drawn)
→ i | 0.94 | nt | nt | 97 | nt | nt
NC1=NC[C@@H](Cc2ccc(O)cc2)N1CC1CCCCC1
→ i | 1 | nt | nt | 84 | nt | nt

# Next part.
SMILES,HSV augment,HSV augment primary fold,GALR2 ag,PKD1 inh,RGS16-Gao,INS promoter inh,INS promoter inh cell count
COc1ccc(C(=O)n2nc(-c3ccco3)nc2N)cc1OC,i,0.93,nt,4,99,nt,nt
CC1CCCN(c2nc3c(c(=O)n(C)c(=O)n3C)n2CCSc2nc3ccccc3o2)C1 (stereo not drawn),i,0.83,0.4,15,102,53,111
Cc1cc(/C=C2\NC(=S)NC2=O)c(C)n1-c1cccnc1,i,0.96,nt,nt,107,nt,nt
O=C(c1ccco1)N1CCN(C(=O)C2CCCN(S(=O)(=O)Cc3ccccc3)C2)CC1 (stereo not drawn),i,0.98,-0.1,-3,101,-11,246
CC1(C)OC(=O)C(=CSc2ccc(C(C)(C)C)cc2)C(=O)O1,i,1.1,nt,0,101,nt,nt
CSc1ccccc1NC(=O)CN1CCCCC1C (stereo not drawn),i,1.1,nt,0,108,0,112
CC(C)SCC(=O)Nc1ncc2c(n1)-c1ccccc1CC2,i,0.98,nt,2,98,-50,120
CCCC(=O)N(Cc1cc2cc(C)ccc2[nH]c1=O)c1ccccc1OC,i,0.98,-0.5,-5,92,-69,96
COc1ccc(/C=N/NC(=O)c2ccn[nH]2)cc1Cn1nc(C)c([N+](=O)[O-])c1C,i,0.97,nt,nt,97,nt,nt
CCOC(=O)c1c(NC(=O)c2cc(-c3ccc(Cl)s3)nc3ccccc23)sc(C(N)=O)c1C,i,1,-1.3,1,100,26,119
CC(=O)Nc1ccc(S(=O)(=O)N2CCN(S(=O)(=O)N3CCCCCC3)CC2)cc1,i,0.76,-2.2,0,95,19,136
COc1ccc(C(=O)COC(=O)CCN=C2NS(=O)(=O)c3ccccc32)cc1OC,i,0.7,-0.8,-10,96,6,94
COC(=O)C(CCCCNC(=O)OCc1ccccc1)NC(=O)CN (stereo not drawn),i,0.95,-1.1,-2,97,25,167
COc1ccc(NC(=O)c2ccc3c(=O)n(Cc4ccco4)c(=S)[nH]c3c2)c(OC)c1,i,1.1,-3.1,-5,92,4,97
CCOc1ccc(-n2c(C)cc(/C=N\NC(=O)CC(=O)NC3CCCCC3)c2C)cc1,i,0.98,-1.3,9,102,25,126
O=[N+]([O-])c1ccc(Cl)c(CN2CCSCC2)c1,i,0.97,0.6,5,111,-38,103
O=C(NCc1ccccc1)C(=O)NCC(c1ccco1)N1CCN(c2ccccc2F)CC1 (stereo not drawn),i,1.1,nt,7,102,nt,nt
COc1ccc(NC(=O)N2CCC(c3nc(-c4cccs4)no3)CC2)cc1,nt,nt,-1.6,2,98,14,52
CCc1ccc(NC(=O)c2ccc(C3SCC(=O)N3CCc3ccccc3)cc2)cc1 (stereo not drawn),nt,nt,-0.9,0,102,7,112
COc1ccccc1CCNC(=O)c1cnccn1,i,1.1,-2.2,-3,103,-11,48
CCOC(=O)c1c(C)noc1-c1ccco1,i,1,nt,nt,103,nt,nt
CCCN(CCC)S(=O)(=O)c1ccc(C(=O)N2CCC(=O)c3ccccc32)cc1,i,0.98,-2.0,27,105,-9,100
O=C(Cn1cc([N+](=O)[O-])cn1)Nc1ccccn1,i,0.65,-3.2,-4,101,nt,nt
CCc1cccc2c(=O)c(C(=O)NCCN3CCOCC3)c[nH]c12,i,0.89,-0.2,-2,97,64,95
CCOc1ccccc1C(=O)NC(C(=O)Nc1cccc(S(N)(=O)=O)c1)C(C)C (stereo not drawn),i,0.99,nt,-3,104,nt,nt
CCC(=O)N1CCN(c2ccccc2NC(=O)c2ccc(OC)c(Cl)c2)CC1,i,0.92,-0.4,-3,63,-20,101
COc1ccc(N(C(C)C(=O)NN=C2CCCCCCC2)S(C)(=O)=O)cc1 (stereo not drawn),i,0.95,nt,-4,97,45,92
CCOC(=O)C1=C(C)NC(C)=C(C(=O)OCC)C1C,i,0.99&1,-0.8,-4,105&98,0,132
CCc1nnc(SCc2cn3c(C)cc(C)nc3n2)n1N,i,0.98,-1.6,4,98,-95,61

# Source: PubChem BioAssay (several laboratories)
